Six1-Eya2 blk = blocks human Six1 binding to Eya2 | Q15475+O00167 | AlphaScreen GST-Six1/His-Eya2 binding, biochemical; hits give low values; control for the full effect not named in the record | activity change, % (test concentration not listed) | actives 0.56% (n = 360,000) | AID 651725; in the data active = activity change below about -65%; inconclusive = about -30% to -65%; inactive = above about -30%; also: % is scaled to controls: 0 for no effect and ±100 for the full control effect; compound concentration not given in the record
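GST-Six1 + His-Eya2 (5X stock: 250/500 nM); Tris pH 8.0, 300 mM NaCl, 0.05% BSA, 0.02% Tween 20; GSH donor/Ni acceptor beads; 1 h 37 °C dark; AlphaScreen readout.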
TRPML1 blocker = human mucolipin-1 channel inhibition; TRPML1-inducible cells, Ca2+ dye fluorescence, FDSS; hits give low values; inhibition of EC80 agonist-evoked calcium signal; AID 624415; actives 0.02% (n = 390,000); activity change, negative = inhibition, % (no concentration beside the values); in the data active means activity change below about -50%; inconclusive means about -30% to -50%; inactive means above about -30%;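 also: stimulus is agonist 54-4 at its EC80 concentration; % is scaled to controls: 0 for no effect and ±100 for the full control effect; compound concentration not given in the record; the text of the record puts the active cut at -80%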
Target sequence (Q9GZU1 whole entry, looked up): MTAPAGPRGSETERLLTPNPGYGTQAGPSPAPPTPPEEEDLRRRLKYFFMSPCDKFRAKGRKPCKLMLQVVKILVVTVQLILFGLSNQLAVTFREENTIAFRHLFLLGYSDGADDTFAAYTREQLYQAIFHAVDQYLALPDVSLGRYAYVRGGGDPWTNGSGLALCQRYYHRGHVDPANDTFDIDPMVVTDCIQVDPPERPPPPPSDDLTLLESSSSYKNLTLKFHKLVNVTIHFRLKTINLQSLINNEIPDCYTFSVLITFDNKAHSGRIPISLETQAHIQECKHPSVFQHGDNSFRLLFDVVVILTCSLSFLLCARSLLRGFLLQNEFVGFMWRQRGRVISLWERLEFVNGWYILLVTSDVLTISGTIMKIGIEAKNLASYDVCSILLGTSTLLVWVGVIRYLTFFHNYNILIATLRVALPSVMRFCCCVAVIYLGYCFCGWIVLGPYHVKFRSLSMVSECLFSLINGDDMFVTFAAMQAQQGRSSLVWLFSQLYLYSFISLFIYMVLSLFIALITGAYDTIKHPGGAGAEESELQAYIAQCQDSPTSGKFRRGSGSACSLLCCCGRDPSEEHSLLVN
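TRPML1-DL cells, Tet-induced overnight (~16 h, 37 °C) at 1,500 cells/well, were loaded with Ca8 no-wash dye plus quencher for 45-90 min at room temperature. Compounds were pinned during FDSS kinetic reading; agonist 54-4 at EC80 (4 uM final) then added.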
PINK1 modulator = modulators of PINK1 expression; Potency, µM (top dose mostly 76.6 µM), without a hit: at the top dose activation (PINK1 increase), most hits filed as activators; AID 624263; PINK1 immunofluorescence, high-content cytometry, 24 h; actives 0.2% (n = 410,000); active = well fitted activation curve with a large enough effect; inconclusive = small, poorly fitted or top-dose-only effect; inactive = flat fitted curve, though single readings scatter; cell line not stated here;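 also: potency is read from the fitted curve at half-maximal effect; % of control where 0% means no effect; nearly all actives have a fitted effect of over 65% in size; a mitochondrial uncoupler was the plate control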
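Cells are seeded, rested 12 hours, then given compound at five concentrations or DMSO for 24 hours. After fixation, blocking and antibody staining, PINK1 amount and mitochondrial localization are scored; CCCP serves as control.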
D2 potentiator = positive allosteric modulators of human D2 dopamine receptor | DiscoveRx D2 beta-arrestin cells, luminescence, 90 min; 100% = 57 uM dopamine signal | potentiation, % (concentration not given with the values) | P14416 | actives 0.23% (n = 360,000); active = potentiation of 50% or more; inconclusive = 30% to 50%; inactive = 30% or less;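 also: compound concentration not given in the record; tested on top of an EC20 dose of dopamine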
Target sequence (P14416 whole entry, looked up): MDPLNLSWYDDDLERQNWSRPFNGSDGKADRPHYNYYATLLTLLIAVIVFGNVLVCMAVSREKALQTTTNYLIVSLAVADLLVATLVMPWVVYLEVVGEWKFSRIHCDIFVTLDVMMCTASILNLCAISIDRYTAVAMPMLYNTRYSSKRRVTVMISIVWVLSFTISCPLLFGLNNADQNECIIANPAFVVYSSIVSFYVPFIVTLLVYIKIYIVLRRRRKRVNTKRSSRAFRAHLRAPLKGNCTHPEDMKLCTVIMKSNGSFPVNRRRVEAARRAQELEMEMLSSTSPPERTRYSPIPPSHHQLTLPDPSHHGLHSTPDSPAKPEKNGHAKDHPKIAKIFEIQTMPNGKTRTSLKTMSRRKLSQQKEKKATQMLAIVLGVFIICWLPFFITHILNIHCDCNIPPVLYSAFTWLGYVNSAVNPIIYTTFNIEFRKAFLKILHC
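PathHunter beta-arrestin assay in DiscoveRx D2 cells. Compounds were added with an EC20 of dopamine (50 nM final) for 90 min at 37 deg C. Luminescence was read 1 h after detection reagent, with 57 uM dopamine as the EC100 control.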
TRPML1 agonist = activates the human TRPML1 channel. Q9GZU1. TRPML1-expressing cells, Ca2+ dye fluorescence, FDSS; host cell line not named in the record; reference of the full effect not given here. activation, % (concentration not given with the values). actives 0.12% (n = 410,000). AID 624414; in the data active = activation above about 50%; inconclusive = about 30% to 50%; inactive = below about 30%; also: 0% is about no effect; the text of the record puts the active cut at 80%
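In this qHTS format, compounds were pin-transferred onto Ca8-dye-loaded TRPML1-DL cells induced with Tet overnight, and intracellular Ca2+ fluorescence was recorded kinetically for 110 s after a 10 s baseline. A subsequent 4uM final 54-4 (EC80) addition followed by a second 110 s read served as the antagonist phase.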
D2 ag = human D2 receptor agonism in beta-arrestin assay. AID 624465. actives 0.084% (n = 360,000). DiscoveRx PathHunter D2 beta-arrestin, luminescence, 90 min; 100% = 57 uM dopamine signal. P14416. activation, % (concentration not given with the values); in the data active = activation above about 40%; inconclusive = about 15% to 40%; inactive = below about 15%; also: compound concentration not given in the record; the text of the record calls up to 30% inactive
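DiscoveRx PathHunter D2 beta-arrestin cells (2,100/well) attached overnight, then compound-stimulated 90 min at 37 C in HBSS/10 mM HEPES/0.1% Tween-20 buffer; beta-galactosidase complementation read by luminescence after 1 h at ambient temperature. Dopamine 57 uM final (EC100) as control.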
* hit, by the source's call; ? = inconclusive; . = no result given; & = joins results of further samples; [ ] = dose if it differs, or a comment.

SMILES | Six1-Eya2 blk | TRPML1 blocker | PINK1 modulator | D2 potentiator | TRPML1 agonist | D2 ag
CS(=O)(=O)N(CC(=O)Nc1ccccc1)Cc1ccc(Cl)cc1 | 5 | -8 | 5.6%[38.3 µM] | -4 | 0.1 | -3.1
CCCCN1C(=O)CC2CCOC21C (configuration not stated) | 0 | -6 | 0.5% | -9 | 0.1 | -4.6
Oc1cccc(C=Nc2cccc3ccccc23)c1O | ? | -13 | -0.1% | -1 | 0.0 | 11
CC(=O)N1C(=O)/C(=C2\SC(=S)N(c3c(C)n(C)n(-c4ccccc4)c3=O)C2=O)c2ccccc21 | 9 | -9 | 0.4% | 1 | 0.8 | 11
Cc1cccc(NCC(=O)N/N=C\c2ccccn2)c1 | -9 | -11 | 2.0% | -10 | -0.9 | 1.9
O=C(COc1ccccc1)NC(=S)Nc1ccc(Br)cn1 | 2 | 32 | 0.3% | -9 | 1.7 | -5.7
CC(=O)N1c2ccc(S(=O)(=O)N3CCC(C(=O)NCc4ccc(Cl)cc4)CC3)cc2CC1C (configuration not stated) | 1 | -12 | 0.0% | -8 | 0.0 | 7.3
c1ccc2[nH]c(-c3ccc4c(c3)OCO4)nc2c1 | -2 | 20 | -0.4% | -6 | 0.7 | 1.5
O=C(CNC(=O)c1cccs1)Nc1ccc2c(c1)OCCO2 | 1 | 3 | 1.1% | 4 | -0.2 | -3.6
Cc1cc(C)nc(SCC(=O)Nc2ccc(S(=O)(=O)Nc3nccs3)cc2)n1 | -2 | 16 | ? | -2 | 1.0 | 1.6
O=C(N/C(=C/c1ccc(Br)cc1)C(=O)N1CCOCC1)c1ccco1 | -2 | -7 | 0.9% | -22 | -0.3 | -1.8
CCOc1cccc(/C=C2\NC(=S)N(c3ccccc3)C2=O)c1O | -11 | -9 | 5.5% | -15 | 0.3 | -12
CCC(=O)Nc1cccc(C(=O)OCc2cccc([N+](=O)[O-])c2)c1 | -4 | 27 | 2.6% | -4 | 0.5 | -2.2
CC(C)N1CN(c2ccccc2)C(=S)N(c2ccccc2)C1 | 0 | 4 | 0.0% | -7 | 0.0 | -3.7
Cc1cc2c(c(=O)o1)C(c1cccs1)C(C#N)=C(N)O2 (configuration not stated) | 1 | 23 | -0.1% | -9 | -0.7 | -3.4
CCn1nccc1NC(=O)c1ccc2sc([C@@H]3O[C@H](CO)[C@H](O)[C@H](O)[C@H]3O)nc2c1 | 11 | -1 | 0.7% | -11 | 0.2 | -7.0
CN(C)/C=C/C(=O)c1ccc(-n2cccc2)cc1 | -5 | 5 | 0.5% | -6 | 4.4 | -2.1
Cn1c(=NC(=O)C2CCN(S(=O)(=O)c3cccs3)CC2)sc2ccccc21 | 4&3 | 74&46 | 13%&7.1% | -6&-3 | 0.8&0.4 | 4.6&-1.0
CCOC(=O)N1CCC(NC(=O)C2CCN(C(=O)c3cc4oc(C)cc4n3Cc3c(F)cccc3Cl)CC2)CC1 | 1 | 3 | 1.5% | 1 | 1.3 | -0.7
Cc1ccccc1CNC(=O)CC1C(=O)NCCN1CC1CCCCC1 (configuration not stated) | 0 | -18 | -0.2% | -5 | 2.0 | -1.0
CCC(C(=O)N1CCOCC1)n1c2ccccc2c2nc(=O)cc(C)n21 (configuration not stated) | -2 | 8 | -1.2% | -14 | -0.1 | -2.9
CCOC(=O)NC(NCc1cccc(C(F)(F)F)c1)(C(F)(F)F)C(F)(F)F | 8 | 17 | 0.4% | -22 | 0.9 | -1.3
COc1ccccc1NC(=O)Nc1nc(C(N)CCc2ccccc2)cs1 (configuration not stated) | -9 | -14 | -1.6% | -21 | 0.5 | -1.2
O=S(=O)(Nc1cccc2cccnc12)c1ccccc1Br | . | -14 | 0.5% | . | 2.1 | .
O=C(C1CCCCC1)N1C[C@@H](n2cc(-c3ccc(F)cc3)nn2)[C@H](O)C[C@@H]1c1ccccc1 | 7 | 8 | -0.3% | 1 | 1.1 | -7.1
CCCc1ccc(C(=O)/C=C/N(C)C)cc1 | -6 | -15 | 1.9% | -6 | 0.2 | -2.0
CCN(CC)CCNC(=O)c1ccccc1N | 25 | 1 | 1.0% | -26 | 0.0 | -2.5
Cc1ccc(NC(=O)CCN2C(=O)NC3(CCCC3)C2=O)cc1 | 7 | 9 | 0.1% | -2 | -1.0 | 1.4
CC(CN1CCCC1)C(=O)NN (configuration not stated) | -2 | 0 | 0.1% | -2 | 2.2 | -2.5
Cc1ccc(NC(=O)c2cc(NC(=O)c3ccco3)ccc2N2CCCCC2)cc1 | 0 | -7 | 14% | -9 | 4.5 | -6.6
CCCCNC(=O)C1(C)CCN1C(=O)CSc1ccccc1 (configuration not stated) | 4 | . | 0.2% | -1 | -0.9 | 2.7
Cc1cc(-c2nnnn2-c2ccc(C(F)(F)F)cc2)no1 | 1 | -5 | -0.3% | 5 | 0.8 | 1.2
C[C@H](CO)N1C[C@H](C)[C@@H](CN(C)S(=O)(=O)c2cn(C)cn2)Oc2ccc(NC(=O)Cn3cnnn3)cc2C1=O | 0 | 23 | 0.1% | -3 | 0.2 | 1.6
O=C(O)c1ccc(-n2ncc(Cl)c(Cl)c2=O)cc1 | 0 | 6 | -0.1% | -15 | -0.3 | -4.4
CCN(CC)CCNC(=O)c1cc(S(=O)(=O)N2CCc3ccccc32)cn1C | 7 | 7 | -0.4% | -7 | 0.3 | -5.6
CCCCCCOc1ccc(C(CC(=O)NC)C(=O)O)cc1 (configuration not stated) | 0 | -8 | -1.0% | -2 | 0.0 | -0.4
COC(=O)c1c(NC(=O)C(C)C)sc(C(=O)N2CCOCC2)c1C | 8 | 11 | 0.0% | -1 | -0.1 | -3.3
Cc1ccc2cccc(SCC(=O)Nc3ccc(F)cc3)c2n1 | 2 | 12 | 3.3% | -14 | -1.6 | -1.0
COCCNC(=O)c1c(NC(=O)c2cc(=O)c3cc(Cl)ccc3o2)sc2c1CCCC2 | . | 12 | 5.9% | . | -0.4 | .
O=C(Nc1ccc(Cl)cc1)c1cc(S(=O)(=O)NC2CCCCCC2)ccc1F | . | 29 | 16% | . | 2.5 | .
CCOC(=O)c1c(C)[nH]c(/C(C)=N/NC(=O)c2cccnc2)c1C | -5 | 5 | 0.0% | -6 | -0.5 | -3.3
O=C(CSc1ncnc2c1oc1ccccc12)Nc1cccc(C(F)(F)F)c1 | -3 | -22 | 3.1% | 1 | -0.3 | 1.8
COc1ccc(-n2nc3c(N4CCC(C(=O)NCCc5ccco5)CC4)nnc(C)c3c2C)cc1 | -4 | 17 | 0.6% | -10 | 2.3 | -3.9
C/C(=N\Nc1nc2ccccc2s1)c1ccc2c(c1)OCO2 | 0 | 4 | 4.7% | -6 | 2.1 | -2.0
Cc1ccccc1Cn1c2ccccc2c2cnn(CC(=O)NCCc3ccccc3)c(=O)c21 | . | -15 | ? | . | 5.5 | .
Cc1sc(NC(=O)c2ccco2)nc1-c1ccccc1 | ? | -3 | -1.8% | -22 | 1.8 | -1.5
COc1cccc(C(NC(C)=O)c2nc(-c3cnn(C)c3)cs2)c1 (configuration not stated) | 3 | . | -0.4% | -6 | -0.6 | -1.7
COc1ccccc1N1CCN(S(=O)(=O)c2ccc(-c3cnc(C4CC4)o3)cc2)CC1 | -16 | -21&7 | 1.1%&-0.7% | -13 | 1.5&-0.2 | -3.5
Cc1nn(CC(O)COc2ccc3c(c2)CCC3)c(C)c1Br (configuration not stated) | -4 | -9 | 13% | -2 | -0.1 | -1.5
COc1ccc(C)cc1Nc1nc(-c2ccccc2O)nc2ccccc12 | 5 | 11 | 9.2% | -9 | 0.5 | 2.7
CCOC(=O)CSc1nc2sc3c(c2c(=O)n1CC)CC(C)(C)OC3 | 3 | 9 | 3.3%[38.3 µM] | -4 | 1.1 | -0.2
O=C(NC(N1CCCCCC1)C(Cl)(Cl)Cl)c1ccccc1Cl (configuration not stated) | 1 | -10 | 3.4% | -7 | -0.1 | -3.5
COc1ccc(OC)c2c1cc(C(=O)N[C@@H](C)C(=O)N[C@@H](C(=O)O)c1ccccc1)n2C | -4 | 6 | 1.8% | 1 | -0.4 | 7.9
Cc1nnc2sc(SCC(=O)Nc3ccc(Br)cc3)nn2c1=O | -87* | 1 | 1.7% | -7 | 0.0 | -2.3
COc1cccc(-c2noc(CCC(=O)NCCc3ccccc3)n2)c1 | -6 | 17 | -0.9% | -9 | 1.8 | 0.5
CCC1(c2ccccc2)NC(=O)N(CC(=O)Nc2ccccc2C(=O)N2CCCCC2)C1=O (configuration not stated) | -2 | -5 | 1.7% | -27 | 0.7 | -4.3
Cc1nnc(N2CCN(c3ccccc3F)CC2)c2c1nnn2Cc1ccccc1 | . | -15 | 2.2% | . | -0.3 | .
O=C(Cn1cc(COc2ccccc2C(F)(F)F)nn1)c1ccc(O)cc1 | 1 | -7 | -1.3% | -22 | -1.1 | -11
CC(C)(C)NCC(O)CON=C1c2ccccc2-c2ccccc21 (configuration not stated) | 7 | 6 | -2.0% | -29 | 0.2 | -3.0
COC(=O)C1CCN(C(=O)c2ccc(OC3CCN(Cc4ccccn4)CC3)cc2)CC1 | 8 | -2 | -0.1% | -2 | -0.8 | -8.6

(more compounds)
SMILES | Six1-Eya2 blk | TRPML1 blocker | PINK1 modulator | D2 potentiator | TRPML1 agonist | D2 ag
COc1ccc(-n2cc(CN(C)C3CCOCC3)c(-c3cccc(F)c3)n2)cc1 | -12 | 17 | 1.3% | -17 | 0.3 | -2.8
CC(C)OCCCNC(=O)c1cc(-c2cccnc2)nc2ccccc12 | 6 | . | -1.0% | 7 | . | -2.5
Cc1ccc2c(c1)N(CC(=O)N1CCCCC1)C(=O)CO2 | 56 | -4 | -1.5% | -4 | 1.0 | -5.8
O=C(CN1C(=O)c2ccccc2C1=O)N1CCN(C2c3ccccc3-c3ccccc32)CC1 | -14 | 39 | 9.6% | -12 | 0.4 | -1.3
O=S(=O)(Nc1nc2ccccc2nc1Cl)c1ccc(F)cc1 | -6 | 7 | 1.1% | -12 | 0.1 | -3.0
Cc1cccc(COC[C@H](CC(C)C)N2CCN(C(=O)c3ccc(C(F)(F)F)cc3)CCC2=O)c1 | 8 | . | 0.4% | . | -0.2 | .
COc1ccc(OCCCC(=O)Nc2ccc(N3CCCCC3)cc2)cc1 | 1 | -23 | 5.5% | 19 | 0.2 | -3.8

Single records, from the list above. Order of screens: Six1-Eya2 blk	TRPML1 blocker	PINK1 modulator	D2 potentiator	TRPML1 agonist	D2 ag
COc1ccc(-n2cc(CN(C)C3CCOCC3)c(-c3cccc(F)c3)n2)cc1 reads -12	17	1.3%	-17	0.3	-2.8
CC(C)OCCCNC(=O)c1cc(-c2cccnc2)nc2ccccc12 reads 6	.	-1.0%	7	.	-2.5
O=S(=O)(Nc1nc2ccccc2nc1Cl)c1ccc(F)cc1 reads -6	7	1.1%	-12	0.1	-3.0
